LT uptake inh = blocks cellular internalization of anthrax lethal toxin. AID 912. 70,000 compounds, 0.67% hits. Potency, µM (doses to about 40 µM), inactives show top-dose activity change, negative = inhibition, actives largely listed as inhibitors. Cells, anthrax lethal toxin internalization, FRET ratio (460/530); active = well fitted falling ratio curve with the 530 nm signal flat; inconclusive = other ratio curves, or a change in one channel alone; inactive = flat curves in the ratio and both channels; the % refers to the ratio; further: on the % scale 0 is the no-effect control and ±100 the full control effect; nearly all actives have a fitted effect of over 50% in size; tested in ME-180 cells; beta-lactamase reporter
Prx2 Sm inh = blocks S. mansoni peroxiredoxin 2 enzymatic activity; S. mansoni Prx2 activity coupled to TGR/GSH (TGR is thioredoxin glutathione reductase), NADPH fluorescence loss, qHTS; some inactives read as strong as hits; Potency, µM; 65,000 compounds, 0.07% hits; AID 448; active means full or partial inhibition curve with a strong effect at the top dose; inconclusive means weaker partial or single-point curve; inactive means no accepted curve; further: series up to 57 µM; many of its hits are not listed in these tables
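Enzyme mix: 100 uM NADPH, 25 nM TGR, 700 uM GSH, 50 nM Prx2 in 100 mM phosphate pH 7.4, 10 mM EDTA, 0.01% Tween-20. 15 min RT with compound; NADPH/GSH added, H2O2 starts reaction; NADPH fluorescence read 8 min.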
* marks the source's active call; other numbers are inactive results; ? = inconclusive; . = not tested or not shown; & = joins results of further samples; [ ] = remark or other dose. Potency means the concentration at half of the fitted maximal effect.

SMILES | LT uptake inh | Prx2 Sm inh
Cc1ccc2oc(=O)c3cnn(CC(=O)N4CCCc5ccccc54)c3c2c1 | 14% | .
COc1ccc(CSc2nc(N3CCOCC3)c3c(c2C#N)CC(C)(C)OC3)cc1 | ? | >57
O=C(C(Cc1ccccc1)n1cccc1)N1CCN(c2ncccn2)CC1 (centres undefined) | -9% | >57
O=P(O)(OP(=O)(O)c1ccccc1)c1ccccc1 (tested in a mixture with another compound) | ? | >57
CC(C)(N)C(=O)N[C@@H]1C(=O)N2[C@@H]1SC(C)(C)[C@H]2C(=O)O | -3%[8 µM] | >57
COc1ccccc1Nc1nc(N)nc(CN2CCN(c3ccccc3)CC2)n1 | ? | >57
CCOC(=O)C1CCN(C(=O)CCCN2C(=O)c3ccccc3C2=O)CC1 | 6% | >57
CC1=C(C)CS(=O)N(S(=O)(=O)c2ccc(Cl)cc2)C1 (centres undefined) | ? | >57
O=C(NCCN1CCOCC1)C1CCN(Cc2ccccc2O)CC1 | -6% | >57
c1coc(-c2nnc3n2C2(CCCC2)Cc2ccccc2-3)c1 | -3% | .
COc1ccccc1CNC(=O)c1ccoc1C | -25% | >57
Cc1ccccc1CN1C2=NCCN2C(=O)C2=C1CCN(Cc1ccccc1)C2 | -4%[8 µM] | >57
Fc1ccc(-c2cc(C(F)(F)F)nc(N3CCCCC3)n2)cc1 | -3% | >57
CCCn1c(SCC(=O)Nc2ccccc2-c2ccccc2)nnc1-c1ccoc1C | ? | >57
CC(=O)Nc1ccc(C(=O)OCC(=O)NC(=O)NC2CCCCC2)cc1 | 0% | >57
CCOC(=O)CSc1nc(C)c(C(=O)OCC)s1 | . | >57
CCC1C(C#N)=C(N)OC2=C1C(=O)CC(C)(C)C2 (centres undefined) | -9% | .
Cc1cccn2c(=O)c3cc(C(=O)N4CCc5ccccc54)n(C)c3nc12 | ? | >57
Cc1cccc(-c2nsc(SCC(=O)N3CCCC3)n2)c1 | 14% | >57
Cc1ccc(C)c(Cn2c(=O)n(CCC(=O)NCc3ccco3)c(=O)c3sccc32)c1 | -3% | >57
COc1ccc(Cn2c(=O)sc3ccccc32)cc1OC | 2% | >57
Nc1ncn([C@@H]2O[C@H](CO)[C@@H](O)[C@H]2O)c(=O)n1 | ? | .
Cc1noc(C)c1C(=O)N1CCC2(CCCN(C(c3ccccc3)c3ccccc3)C2)CC1 | ? | >57
C=CCc1ccccc1OCC(O)CN1CCN(c2ccccc2OC)CC1 (centres undefined) | -23% | >57
O=C(NCC1CCCO1)c1cc2n(n1)C(C(F)(F)F)CC(c1ccc(Br)cc1)N2 (centres undefined) | -2% | >57
C1CCC2=NCCCN2CC1 | -13% | >57
Cc1ccc(C)c(NC(=O)CSc2nnc(-c3ccccc3)n2N)c1 | 6% | >57
COc1cccc(Cn2c(-c3nonc3N)nc3ccccc32)c1 | 1% | >57
COC(=O)C/C=C\[C@H](C)[C@@H](OC)c1ccccc1Br | -5%[0.32 µM] | .
CCOC(=O)Nc1ccc2c(c1)N(C(=O)CCN1CCN3CCCC3C1)c1ccccc1CC2 (centres undefined) | 16% | >57
CCS(=O)(=O)N1CCCC(C(=O)NC2CCC(C)CC2)C1 (centres undefined) | 11% | >57
Cc1noc(C)c1C(=O)Nc1c(F)cc(F)cc1Br | -16% | >57
CC(=O)Nc1cc(C(N)=O)c(Cl)cc1Cl | 13% | .
CC(=O)Nc1ccc(-c2ccccc2)s1 | -11% | >57
CCc1nc2ccccc2c(C(=O)OCC(=O)NCc2ccco2)c1C | -1% | >57
COCCn1c(SCC(=O)c2ccc3c(c2)OCCO3)nnc1C(C)C | 9% | >57
N#Cc1cnn(Cc2ccccc2)c1/N=C/N1CCOCC1 | 8% | >57
c1ccc(-c2cc(-c3nc(-c4cccnc4)no3)c3ccccc3n2)cc1 | -7% | >57
COc1cccc(C(=O)c2cc3ccc(O)cc3oc2=O)c1 | ? | >57
Cc1cc(C)cc(C(=O)N2CCC(C(N)=O)CC2)c1 | -6% | >57
CC(C)Cc1ccc(/C(=N/O)C(=O)O)s1 | 2% | >57
COCCNC(=O)C(OC(=O)c1ccco1)c1ccccc1OC (centres undefined) | 8% | >57
CCc1nnc(NC(=O)c2ccc(S(=O)(=O)N3CCCCCC3)cc2)s1 | 10% | >57
O=C(O)C=Cc1ccc(Cn2ccnc2)cc1 | -20% | >57
CCOc1ccccc1-c1nc(C(N)=O)c2[nH]c(=O)n(-c3ccccc3)c2n1 | 1% | >57
N#Cc1ccc(CN2CC[C@@]3(CCCN(C(=O)c4cc(C(F)(F)F)cc(C(F)(F)F)c4)C3)C2)cc1 | ? | >57
COc1ccc2c(=O)c(C(=O)NCCc3ccc(OC)c(OC)c3)c[nH]c2c1 | -1% | >57
Cc1ccc(Cl)cc1NC(=O)C1CCCN(S(=O)(=O)c2c(C)noc2C)C1 (centres undefined) | -11% | >57
Cc1c(C(=O)Nn2cnnc2)oc2ccccc12 | -14% | >57
COc1ccc2oc(=O)c(NC(=O)C3CCCCC3)cc2c1 | 6% | >57
NC[C@@H]1O[C@H](O[C@@H]2[C@H](O[C@@H]3O[C@H](CO)[C@@H](COC[C@H]4O[C@@H](CN)[C@@H](O)[C@@H](O)[C@@H]4N)[C@@H]3O)[C@@H](O)[C@@H](N)C[C@H]2N)[C@@H](N)[C@H](O)[C@@H]1O | -7%[3.58 µM] | >57
COC(=O)c1ccc(C2C(C#N)=C(C)NC3=C2C(=O)CC(C)(C)C3)cc1 (centres undefined) | ? | >57
CCCC(C)(COC(N)=O)COC(=O)NC(C)C (centres undefined) | ? | .
COc1ccccc1OCCOCCn1cnc2ccccc2c1=O | . | >57
C=CCNC(=O)CSc1nc2sc(C)c(C)c2c(=O)[nH]1 | 14% | >57
O=c1c(CCc2ccccc2)nc2cncnc2n1-c1ccccc1 | ? | >57
c1ccc2c(c1)oc1c(NCCN3CCOCC3)ncnc12 | 9% | >57
O=C(O)/C=C\c1ccc(Cn2ccnc2)cc1 | -6%[3.58 µM] | >57
Cc1ccc2cc(CN(CCCN(C)C)C(=O)NCc3ccccc3)c(=O)[nH]c2c1C | -18% | >57
Cc1ccc2c(c1)CCCN2C(=O)c1c(C)noc1C | -8% | >57
(list continues)
SMILES | LT uptake inh | Prx2 Sm inh
C[C@H]1CN(CCO)CCN1c1ccccc1 | -6%[8 µM] | >57
N#Cc1c(/N=C/c2ccco2)oc(-c2ccccc2)c1-c1ccccc1 | 18% | >57
O=C(O)C1C2C=CC(C2)C1C(=O)Nc1ccc(C(=O)N2CCCCC2)cc1 (centres undefined) | -3% | >57
CCCCCCCN | -2% | .
CN1CC(=O)N(CCOc2ccccc2)C1=O | -15% | >57
CC(=O)Nc1cccc(N2C(=O)CC(Cc3ccccc3)C2=O)c1 (centres undefined) | 12% | .
CS(=O)(=O)c1ccc(Cn2c3c(c4cc(F)cc(F)c42)CCC[C@H]3CC(=O)O)cc1 | -4% | >57
O=C(Nc1ccc2c(c1)OCCO2)NC1CCCCC1 | -16% | .
CCC(C)(C)n1nnnc1C(c1ccc(C)cc1)N1CCCC1 (centres undefined) | 6% | >57
O=C1C2=CC[C@H]3C(=O)N(Cc4ccccc4)C(=O)[C@@H]3[C@@H]2[C@H](O)[C@@H]2O[C@H]12 | -29%[8 µM] | .
COc1cc(C2C(C#N)=C(C)NC3=C2C(=O)CC(C)(C)C3)cc(OC)c1O (centres undefined) | 1% | >57
Cc1cc(C(=O)N2CCN(c3ccccc3)CC2)no1 | 5% | >57
COc1ccc(C(=O)N(CCCO)C(C)C(=O)NC2CCCCC2)cc1OC (centres undefined) | ? | >57
COc1ccc(S(=O)(=O)N2CC(O)CC2C(=O)OCC(=O)Nc2ccc(Cl)cn2)cc1 (centres undefined) | 16% | >57
C#CCSc1nc(-c2cccs2)ccc1C#N | 4% | >57
CC1=C(C(=O)OC2CCCCC2)C(c2ccco2)C2=C(CC(C)(C)CC2=O)N1 (centres undefined) | -24% | .
O=C(c1cccs1)N1CCN(S(=O)(=O)Cc2ccccc2)CC1 | -10% | >57
O=C(Nc1cnn(Cc2ccc(Cl)c(Cl)c2)c1)c1nc2ncccn2n1 | -1% | >57
CCCCn1c(SCC(=O)N2CCCCC2)nc2cc(S(N)(=O)=O)ccc21 | ? | >57
CN(C)Cc1ccccc1-c1cc(NCc2ccccc2)ncn1 | 6% | >57
CCCCn1c(=O)n(Cc2cccc(F)c2)c(=O)c2c1ncn2Cc1ccco1 | ? | >57
C=C(C)COc1ccc(-c2[nH]ncc2Oc2ccccc2OC)c(O)c1 | ? | >57
Nc1nc(CSc2nnnn2-c2ccc(F)c(Cl)c2)nc(N2CCOCC2)n1 | 1% | >57
CCOC(=O)Cc1c(C)nc2c(-c3ccccc3)c[nH]n2c1=O | 12% | >57
Cl/C=C/CCl | -10% | .
COCC1C2CC[C@H]3C(OCc4ccc(F)cc4C(F)(F)F)OC[C@]4(C)[C@H]3C2=C(CN4C(=O)OC(C)(C)C)[C@H](C)C1COC (some centres undefined) | 1% | >57
COCc1nnc(NC(=O)c2ccc(NC(=O)C(C)C)cc2)s1 | 8% | >57
Cc1ccc2c(CSc3nc4ccccc4c(=O)n3CCCO)cc(=O)oc2c1 | 16% | >57
CSc1ccc(CNc2ccccn2)cc1 | -6% | >57
CCc1ccc(NC(=O)C2CC=CCC2C(=O)O)cc1 (centres undefined) | 2% | >57
CCC(=NCc1ccccc1)C1=C(O)C(C(=O)OC)C(C)(C)CC1=O (centres undefined) | 4% | >57
COc1ccc(C2C(C#N)=C(N)Oc3n[nH]c(C)c32)cc1Cn1nnc2ccccc21 (centres undefined) | -26% | >57
NC(=O)C(F)(F)C12OC3C4C5CC(C6C5C3C61)C42 (centres undefined) | 4% | >57
O=C1CC(c2ccc(F)cc2)C2=C(CCCC2=O)N1 (centres undefined) | 0% | >57
CC(=O)N[C@@H](Cc1c[nH]c2ccccc12)C(=O)OCc1cc(C(F)(F)F)cc(C(F)(F)F)c1 | ? | >57&>26
CCCCC(=O)Nc1ccc(F)c(Cl)c1 | 4% | >57
CSc1ccccc1NC(=O)Cn1c(-c2cscn2)nc2ccccc21 | -22% | >57
CCCOc1ccc(NC(=O)c2c(-c3ccccc3)noc2C)cc1 | 3% | >57
CCN1CC=C2C(C#N)=C(N)C(C#N)(C#N)C(c3cc(Cl)ccc3Cl)C2C1 (centres undefined) | ? | >57
COc1cc2c(cc1O)CC[C@@H]1[C@@H]2CC[C@@]2(C)[C@H](O)CC[C@H]12 | -11% | >57
CCC(C)NC(=O)CSc1nc2n[nH]c(C)c2c(=N)n1-c1ccc(OC)cc1 (centres undefined) | 1% | >57
CCN(CC)CCCN1C(=O)CSC1c1ccc2c(c1)OCO2 (centres undefined) | 1% | >57
CC(C)Oc1cccc(-c2cc(C(=O)N3CCN(S(C)(=O)=O)CC3)c3ccccc3n2)c1 | ? | >57
CC(=O)c1ccc(NC(=O)C2CCN(S(=O)(=O)c3cccc4cccnc34)CC2)cc1 | -8% | >57
CC1(C)O[C@H]2[C@@H](c3[nH]nc4c(=O)[nH]c(=O)[nH]c34)OC[C@H]2O1 | -1%[8 µM] | >57
COc1ccc(C)cc1-n1nnnc1SCc1csc(C)n1 | -10% | >57
O=C(C1CC1)N1CCc2cc(Br)cc(S(=O)(=O)NCc3ccccn3)c21 | -8% | >57
O=S(=O)(c1ccccc1)N1CCN(CC(O)COc2ccc3c(c2)CCC3)CC1 (centres undefined) | -12% | >57
Cc1cccc(C)c1 | 5% | .
O=S(=O)(c1ccc(C2CCCCC2)cc1)N1CCN(c2ncccn2)CC1 | . | >57
COC(=O)CSc1cc(C)nc(NC(C)=O)n1 | -10% | >57
CCN(CC)S(=O)(=O)c1ccc(-c2nnc(SCc3nnc(-c4ccc(C)cc4)o3)o2)cc1 | -12% | >57

The list is partial, so the mix of outcomes need not match the whole.
